# HIV TAR-Tat = HIV-1 TAR-Tat binding disruption; AID 1259389; 100,000 tested, 0.6% active; z-score (concentration not given with the values); HIV-1 TAR RNA, Tat peptide displacement FRET; stronger effect = higher value;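 also: score is relative to mean and SD of negative controls; some compounds called inactive have numbers as strong as hits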
# CDC25B-CDK2 inh = human CDC25B-CDK2/CyclinA binding inhibition. P30305+P24941. HTRF CDC25B-CDK2/CyclinA binding, anti-His/anti-Flag; stronger effect = higher value. z-score (concentration not given with the values). 94,000 tested, 0.72% active;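 also: score is relative to mean and SD of negative controls; strong numbers were not always called active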
# Starred values were filed as active, the others as inactive; · = not tested or not shown.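 The calls were made as follows: active = z-score from 3 up in half or more of its runs; inactive = the rest.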 Not a hit list. Share with any hit: about 0.97%.
SMILES,HIV TAR-Tat,CDC25B-CDK2 inh
CC(=O)c1sc2nc(-c3cccs3)cc(C(F)(F)F)c2c1N,·,-1.6
COc1ccc(N2C(=O)CSC23CCCCC3)cc1,·,-0.76
COc1ccc(CN2C(=O)c3cccnc3C2=O)cc1S(=O)(=O)N1CCC(c2ccccc2)C1 (stereo not drawn),0.9,·
Nc1c(-c2nc(-c3ccccc3)no2)nnn1-c1ccc(F)cc1F,0.04,·
COc1ccc(-c2cc(OC(=O)c3ccc(OC)c(OC)c3)c3c(C)oc(C)c3c(=O)c2)cc1,0.92,-1.5
O=C(Nc1ccc(Br)cc1)C1COc2ccccc2C1 (stereo not drawn),-0.62,·
O=C1CCCN2N=C(SC/C=C/c3ccccc3)SC2=N1,·,-1.3
Cc1[nH]ncc1CNC(=O)C1=Cc2ccccc2OC1,-0.65,·
Cc1nn2c3ccccc3n(CC(=O)c3ccccc3)c2nc1=O,-0.19,1.6
Cc1cc2c(cc3c(=O)n(CC(=O)NC4CCCC4)ncn32)s1,-0.51,-0.38
CCOC(=O)c1nc(NC2CCCCC2)c2c(C)noc2n1,1.1,·
CC(C)(C)c1ccc(S(=O)(=O)c2c[nH]c3cc4c(cc3c2=O)OCCO4)cc1,-0.05,-1.8
CC(C)CCNS(=O)(=O)c1ccc2c(c1)oc(=O)n2C,·,-0.82
Cc1cc(C)c2c(C)c(C(=O)Nc3ccc(-n4cnnn4)cc3)oc2c1,14,0.99
CC(=O)OCC[N+](C)(C)C,-0.25,·
CCOC(=O)C1C2C=CC3(CN(CCc4ccccc4)C(=O)C13)O2 (stereo not drawn),-1.1,-1.3
C=CCSc1nc2c(c(=O)[nH]1)C(c1ccc(F)cc1)C(C(=O)OCC)=C(C)N2 (stereo not drawn),-0.47,-0.28
CCOCCOC(=O)C1=C(C)NC2=C(C(=O)C(C(=O)OC)C(C)C2)C1c1cccc(Cl)c1 (stereo not drawn),·,-0.09
CCc1nn(CC(=O)NCCC2=CCCCC2)c(=O)c2cc3occc3n12,2.1,-1.1
CCCCCn1c(=O)[nH]c2c(c1=O)CCC2,·,-0.92
CCCCN1C(C)=NS(=O)(=O)c2cc(C(=O)NC(C)CCC)ccc21 (stereo not drawn),0.15,·
C=CCNc1nc(Nc2ccc(Cl)cc2)c2cnn(C)c2n1,-0.77,·
CCOC(=O)c1sc2nc(CC(=O)OC)nc(Nc3ccccc3OCC)c2c1C,·,-1.2
O=S(=O)(NCCc1csc(-c2ccc(Cl)cc2)n1)c1ccccc1F,-0.41,·
Oc1ccc(Br)cc1-c1nc2cnccn2c1Nc1ccc(Cl)cc1,0.31,0.47
SMILES,HIV TAR-Tat,CDC25B-CDK2 inh
OC(CNCCNc1nccc(C(F)(F)F)n1)COc1ccc(Cl)c(Cl)c1 (stereo not drawn),·,0.14
Nc1cc(-c2cccc(F)c2)nn1S(=O)(=O)Cc1ccccc1,·,-1.1
CCOc1ccc2[nH]c(C)c(CN3CCN(C)CC3)c(=O)c2c1,0.62,-1.2
O=C(NCc1sccc1COc1ccc(Cl)cc1)Nc1cccc(C(F)(F)F)c1,·,-0.79
Cc1cccc(N(CC(=O)NCc2ccco2)S(=O)(=O)c2ccccc2)c1C,·,0.84
COc1ccccc1CNS(=O)(=O)c1cc(-c2cnc(C3CC3)o2)ccc1C,1.6,·
CC1CCCN(c2nn3c(=O)c(C(=O)NC(C)C)cnc3s2)C1 (stereo not drawn),0.8,·
CCN1c2ccccc2-c2nc3ccccc3n2C1c1ccccn1 (stereo not drawn),2.5,-0.18
CCCCN[C@H]1CS(=O)(=O)C[C@@H]1S(=O)(=O)c1ccc(OC)cc1,0.92,-1.8
CCCCOC(=O)CNc1nnc(SCC(=O)OCC)[nH]c1=O,·,-2.5
CC(C)N1C(=O)C(O)(CC(=O)c2ccc3c(c2)OCO3)c2ccccc21 (stereo not drawn),2.7,3.8
Fc1ccccc1-c1noc(N2CCCCC2)n1,-0.47,·
COc1ccc(Cl)cc1NC(=O)c1cnn2c3c(cnc12)CCCCC3,0.74,·
CSc1cccc(N2C(=O)CCC2(C)C(=O)NC2CCCC2)c1 (stereo not drawn),1.8,-1.2
CCOC(=O)c1c(NC(=O)COc2ccc(Br)cc2)sc(C)c1C,2.7,-2.1
CCCCCCCc1ccc(-c2nnc(C3CCC(CCCC)CC3)o2)cc1 (stereo not drawn),·,-2.7
COc1ccc(Cl)cc1S(=O)(=O)Nc1c(-n2cnnc2)n[nH]c1C,0.62,-0.92
COc1cc2c(cc1OC)C(C(=O)NC1CCCc3ccccc31)C1c3ccccc3CCN1C2=O (stereo not drawn),-0.38,-0.98
CC1CS(=O)(=O)N(c2ccc(C(=O)NCc3ccc4c(c3)OCO4)cc2)C1=O (stereo not drawn),1.1,-1.4
C[C@@]12C=Cc3occc3[C@H]1CC[C@]13CC(=O)C(CC[C@H]12)C3,0.81,·
CC1(C)CC(=O)C2=C(C1)OC1CCCCC21 (stereo not drawn),·,-2
Cc1noc(/C=C/c2ccco2)c1S(=O)(=O)N1CCC(C(=O)NCc2cccs2)CC1,-3.5,1.4
CC1(C)CC(=O)C2=C(C1)Nc1ccccc1NC2c1ccc(OCc2ccccc2)cc1 (stereo not drawn),·,-1.6
Cc1cc(C)n(-c2ncc(C#N)c(N)n2)n1,·,0.14
CN1CCN(CCCSc2nnc3c(n2)[nH]c2ccccc23)CC1,1.7,-0.4
SMILES,HIV TAR-Tat,CDC25B-CDK2 inh
Cc1nnsc1-c1nnc2n1N=C(c1ccc(C#N)cc1)CS2,·,-0.66
CCOc1ccc(-c2noc(-c3nnn(-c4cc(C)ccc4C)c3N)n2)cc1,0.13,·
O=C(CSc1nc(-c2ccco2)nc2cc(=O)[nH]n12)NCc1ccc(Cl)cc1,2.7,·
O=C(Nc1nnc(SCc2nnc(-c3ccccc3)o2)s1)c1ccccc1F,0.19,·
O=C(O)CCc1cn(Cc2ccccc2F)c2ccccc12,2,0.53
Clc1ccc2nc(-c3cccnc3)c(NC3CCCC3)n2c1,-1.1,2.4
O=C1CC(c2ccccc2)Sc2nc(-c3ccccc3)nn21 (stereo not drawn),0.93,-0.15
Cc1cc2c(cc1S(=O)(=O)NCCCN1CCOCC1)OCC(=O)N2,-0.12,·
O=C(Nc1ccc(F)cc1Cl)NC1COc2ccccc2C1 (stereo not drawn),1.9,·
CN1CCc2c(sc3c2C(=O)NC(c2ccc(O)cc2O)N3)C1 (stereo not drawn),-1.6,0.15
CC1CCC(C(=O)NC(Cc2c[nH]c3ccccc23)C(=O)NCc2ccccn2)CC1 (stereo not drawn),0.1,-1.9
CN(Cc1ccccc1)S(=O)(=O)c1ccc2c(c1)NC(=O)CCS2,1.8,·
CCc1ccc(-c2ccc(=O)[nH]n2)cc1S(=O)(=O)CCC(=O)NC1CCCCC1,0.94,·
CCCCN1CCn2c(nc3cc(NS(C)(=O)=O)ccc32)C1,-1,-1.8
Cc1ccc(NS(=O)(=O)c2ccc(-c3n[nH]c(C)c3C)s2)c(C)c1,-0.05,·
COc1ccc(CN2N=NC3C(=O)N(c4ccc(OC)c(OC)c4)C(=O)C32)cc1 (stereo not drawn),-0.8,-1.9
CCCOc1ccc(C2C(C#N)=C(N)Oc3n[nH]c(-c4ccc5c(c4)OCO5)c32)cc1 (stereo not drawn),0.73,-2.8
CC(C)(C)C(=O)c1sc2sc(C(=O)C(C)(C)C)c(N)c2c1N,·,-1.7
O=C(COc1ccc(F)cc1)N(Cc1ccco1)C1CCS(=O)(=O)C1 (stereo not drawn),1.5,-1.1
O=C(O)CCCC(=O)Nc1ccc(Oc2cccc(C(F)(F)F)c2)nc1,·,-1.4
CCNc1nc(C)cc(COC)c1C#N,0.36,-0.69
COc1ccc(-c2c3c(=O)n(C)c(=O)n(C)c3c3n2CCOC3c2ccc(Cl)cc2)cc1 (stereo not drawn),-0.59,-2.2
COCCNCc1ccc2c(c1)n(C)c(=O)n2C,0.79,-0.5
O=C(Nc1ccc2c(c1)OCO2)C1CCN(Cc2cnn(-c3ccccc3)c2-n2cccc2)CC1,-0.3,-1.5
Cc1ccc(CNC(=O)CC(C)S(=O)(=O)c2ccc3c(c2)NC(=O)CS3)o1 (stereo not drawn),-7,·

# Record cards (already shown). Order of screens: HIV TAR-Tat	CDC25B-CDK2 inh
# `CCOc1ccc2[nH]c(C)c(CN3CCN(C)CC3)c(=O)c2c1` reads 0.62	-1.2
# `COc1ccc(CN2C(=O)c3cccnc3C2=O)cc1S(=O)(=O)N1CCC(c2ccccc2)C1` (stereo not drawn) reads 0.9	·

# Remaining list, next part.
SMILES,HIV TAR-Tat,CDC25B-CDK2 inh
CCOc1ccc(NC(=O)NC2(C(F)(F)F)Oc3ccccc3O2)cc1,·,5.4
CS(=O)(=O)N1CN(S(C)(=O)=O)c2ccccc21,·,-1.6
OCCCCCCNC(=S)Nc1ccc(F)cc1Br,·,-0.25
CCN1CCc2nc(N)oc2CC1,·,-2.3
Cc1ccc(S(=O)(=O)OC(c2ccccc2F)C(F)(F)[N+](=O)[O-])cc1 (stereo not drawn),·,-0.66
CSc1ncc(Cl)c(C(=O)Nc2ccccc2Br)n1,2,-1.4
CCOC(=O)C1CCN(c2ccc3nncn3n2)CC1,0.09,-1.3
COc1ccccc1Oc1ccc(NC(=O)c2cc3cc(Br)ccc3o2)cn1,-2.8,-1.6
COc1cccc(NC(=O)NCc2nnnn2-c2ccccc2)c1,1.7,·
CCOC(=O)c1noc2nc(C)nc(Nc3ccc(F)cc3Cl)c12,0.9,·
COc1ccc(CN[C@H]2CS(=O)(=O)C[C@@H]2S(=O)(=O)c2ccc(OC)cc2)cc1,-0.82,-0.42
Cc1ccc2n1CCN(C(=O)Nc1ccc(F)c(Cl)c1)C2C(C)C (stereo not drawn),-1.9,·
CCOC(=O)CSc1nc2ccccc2n2cnnc12,-0.36,-0.98
COc1ccc(NC(=O)CSc2nncn3c2cc2sccc23)cc1,2.9,·
Cc1ccc(CNS(=O)(=O)c2cc3c4c(c2)CC(=O)N4CCC3)cc1,-0.93,·
Cc1sc(-c2cc3c([nH]c2=O)CC(c2ccco2)CC3=O)nc1-c1ccc(Cl)cc1 (stereo not drawn),-1.8,-1.7
CCCn1cc(S(=O)(=O)c2ccc(Cl)cc2)c(=O)c2cc(F)c(N(CC)CC)cc21,0.01,·
CC(C)n1cnc2nc(CSc3ccc(NC(=O)C4CCCO4)cc3)cc(=O)n21 (stereo not drawn),-1.3,-2.6
O=C(NCCc1cccs1)c1cnn(-c2ccc(F)cc2)c1-n1cccc1,0.28,·
O=C(NC1COc2ccccc2C1)N1CCc2ccccc2C1 (stereo not drawn),0.68,·
CC1CN(S(=O)(=O)c2ccc3c(c2)NC(=O)CC(=O)N3)c2ccccc2O1 (stereo not drawn),1.7,·
O=C(NCc1cccnc1)c1cc(-c2cccnc2)nc2ccc(Br)cc12,1.4,·
COc1cc(C)c(C(=O)Oc2cc(C)c(C(=O)O)c(O)c2C)c(OC)c1C,1.9,·
CCCCN(CC)C(=O)c1nn(C)c2c1CSc1ccccc1-2,1,0.28
CC(C)(C#N)N([O-])C=C[N+](=O)C(C)(C)C#N,·,-2.4
SMILES,HIV TAR-Tat,CDC25B-CDK2 inh
Cc1ccccc1-n1c(-c2ccccc2)n[nH]c1=S,·,-0.61
Cc1ccc2nc3c(N)c(Cl)cc4c3c(c2c1)-c1ccccc1C4=O,·,-2.5
Cc1nn(-c2nc3ccc(Br)cc3s2)c2c1C(c1ccccc1F)CC(=O)N2 (stereo not drawn),0.33,·
O=S(=O)(NOCc1ccccc1)c1ccccc1,·,-0.94
Cc1sc2nc3ccc(N4CCCC4)nn3c(=O)c2c1C,1.8,1
COC(=O)c1c(NC(=O)Cc2coc3cc(C)cc(C)c23)sc2c1CCCC2,-1.8,-1.4
CC1CCc2noc(NC(=O)COc3ccc(Cl)cc3)c2C1 (stereo not drawn),0.63,1.2
COC(=O)c1ccc(-c2cc(C(=O)O)c3c(-c4ccc(Cl)cc4)[nH]nc3n2)cc1,2.5,·
O=C(NCc1noc2ccccc12)N1CCN(c2ccccn2)CC1,-0.01,·
CCOC(=O)C1=C(N)Oc2cc(O)ccc2C1c1ccccc1 (stereo not drawn),0.83,-1.1
COc1cccc(N2CCN(Cc3nc(N)nc(Nc4cc(Cl)ccc4OC)n3)CC2)c1,1.4,·
Cc1cc(/C=C/c2ccc3cc(N(C)C)ccc3[n+]2C)c(C)n1-c1ccccc1,2.1,·
N#Cc1cc2c(nc1SCC(=O)NC1CCCCC1)CCC2,-0.46,-1.3
COc1cc(NS(=O)(=O)c2ccc3c(c2)NC(=O)CC(=O)N3)cc(OC)c1OC,·,-1.6
O=C(Cn1c(=O)oc2ccccc21)N1CCC2(CC1)OCCO2,·,-1.7

# Filtered by structure, those above with a thiophene ring, fused or not.
SMILES,HIV TAR-Tat,CDC25B-CDK2 inh
CC(=O)c1sc2nc(-c3cccs3)cc(C(F)(F)F)c2c1N,·,-1.6
Cc1cc2c(cc3c(=O)n(CC(=O)NC4CCCC4)ncn32)s1,-0.51,-0.38
CCOC(=O)c1sc2nc(CC(=O)OC)nc(Nc3ccccc3OCC)c2c1C,·,-1.2
O=C(NCc1sccc1COc1ccc(Cl)cc1)Nc1cccc(C(F)(F)F)c1,·,-0.79
CCOC(=O)c1c(NC(=O)COc2ccc(Br)cc2)sc(C)c1C,2.7,-2.1
Cc1noc(/C=C/c2ccco2)c1S(=O)(=O)N1CCC(C(=O)NCc2cccs2)CC1,-3.5,1.4
CN1CCc2c(sc3c2C(=O)NC(c2ccc(O)cc2O)N3)C1 (stereo not drawn),-1.6,0.15
Cc1ccc(NS(=O)(=O)c2ccc(-c3n[nH]c(C)c3C)s2)c(C)c1,-0.05,·
CC(C)(C)C(=O)c1sc2sc(C(=O)C(C)(C)C)c(N)c2c1N,·,-1.7
COc1ccc(NC(=O)CSc2nncn3c2cc2sccc23)cc1,2.9,·
O=C(NCCc1cccs1)c1cnn(-c2ccc(F)cc2)c1-n1cccc1,0.28,·
Cc1sc2nc3ccc(N4CCCC4)nn3c(=O)c2c1C,1.8,1
COC(=O)c1c(NC(=O)Cc2coc3cc(C)cc(C)c23)sc2c1CCCC2,-1.8,-1.4

# Assay outcomes (PubChem)
